# Bioassay records (PubChem BioAssay)
# ALR H2O2 inh – inhibitors of human sulfhydryl oxidase ALR. hit rate 3.8% among 290,000. P55789. AID 485317. purified ALR, DTT oxidation, H2O2 HRP-luminol luminescence. inhibition, % (no concentration beside the values);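 active = mean and each replicate at 75% or more; inconclusive = only one of the two met; inactive = neither met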;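 note: stock transfer was 7.5 nL into about 7.5 µL; 0% = neutral wells and 100% = wells with inactivated enzyme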
# Target sequence (P55789 whole entry, looked up): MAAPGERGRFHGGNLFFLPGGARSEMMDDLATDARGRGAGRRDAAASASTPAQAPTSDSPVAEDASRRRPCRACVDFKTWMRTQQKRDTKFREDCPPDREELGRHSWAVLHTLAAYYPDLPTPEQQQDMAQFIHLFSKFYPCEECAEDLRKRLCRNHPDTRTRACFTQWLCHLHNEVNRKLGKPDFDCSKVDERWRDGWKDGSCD
# Ecoli rRNA inh – inhibitors of bacterial rRNA selective over humanized ribosomes | E. coli WT GFP vs humanized-ribosome RFP mutants, fluorescence, 24 h; hits give low values; DMSO median 0, no signal -100 | hit rate 1.6% among 350,000 | AID 720706 | GFP signal change (wild-type ribosome), % (no concentration beside the values);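 active = significant combined selectivity score with lowered wild-type GFP, culture density cut under 30%, mutant RFP and density less affected; inactive = any of these conditions unmet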; note: one replicate is shown; some compounds called inactive have numbers as strong as hits
# MLL AF4-AF9 inh – MLL-AF4/AF9 protein interaction inhibition | inhibition, % at 10 µM | AlphaScreen, biotin-AF4 peptide binding to FLAG-AF9 | hit rate 0.47% among 350,000;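 active = every replicate reaching a set inhibition limit, whatever the replicate mean, cut at about 25% in these data; inconclusive = mean inhibition reaches that limit but some replicates miss it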;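 note: 0% = plate neutral control median and 100% = total signal loss; the record names both 10 and 1 µM as test concentration; the first replicate is given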
# Target sequence (P42568 whole entry, looked up): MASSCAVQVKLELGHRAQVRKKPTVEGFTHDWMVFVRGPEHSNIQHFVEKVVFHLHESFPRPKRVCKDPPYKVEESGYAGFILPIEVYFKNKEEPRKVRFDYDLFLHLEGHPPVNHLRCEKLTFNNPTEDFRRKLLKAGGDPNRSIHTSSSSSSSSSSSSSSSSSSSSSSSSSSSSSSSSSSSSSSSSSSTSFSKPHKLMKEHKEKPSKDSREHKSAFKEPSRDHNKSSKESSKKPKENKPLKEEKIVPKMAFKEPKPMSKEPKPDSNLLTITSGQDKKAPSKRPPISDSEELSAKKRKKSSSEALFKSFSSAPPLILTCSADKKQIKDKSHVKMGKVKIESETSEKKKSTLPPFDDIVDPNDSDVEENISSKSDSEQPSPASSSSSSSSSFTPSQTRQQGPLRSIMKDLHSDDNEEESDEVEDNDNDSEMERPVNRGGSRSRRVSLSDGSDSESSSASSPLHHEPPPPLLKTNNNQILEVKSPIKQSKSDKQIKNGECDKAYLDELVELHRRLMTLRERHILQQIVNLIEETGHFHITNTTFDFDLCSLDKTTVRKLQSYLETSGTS
# HNF4A DNA FP – change in binding of human HNF4 alpha to DNA; P41235; AID 1224865; activity change, % at 10 µM; hit rate 0.3% among 360,000; HNF4a-FITC DNA binding, fluorescence polarization, 1 h; in the data active = activity change above about 30%, passing the limit was not always enough;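 note: controls were the assay level and a saturating level of protein; the project sought stronger binding though the title names inhibitors; some compounds called inactive have numbers as strong as hits; positive values seem to mean higher polarization but the record does not say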
# Ecoli growth – blocks Escherichia coli growth | OD600, 23 h; hits give low values | OD600 absorbance (test concentration not listed) | hit rate 0.21% among 330,000;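 active = OD600 absorbance below the run mean of sample wells minus 3.6 SD, in any replicate, cut at about 0.56 in these data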;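 note: stock transfer was 300 nL into about 60 µL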
# Vif TR-FRET – HIV-1 Vif–A3G interaction blockers – biochemical, TR-FRET, GST-Vif 1-94, biotin-A3G peptide, dose response retest, primary screen (AID 1117319); TR-FRET GST-Vif / biotin-A3G peptide binding; higher % means a stronger effect; test concentration not given here; strong numbers were not always called active; inhibition, %, or IC50 in µM where a hit was titrated; hit rate 0.57% among 260,000;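 active = above the screen mean plus three standard deviations and confirmed in dose response; inconclusive = results disagree or hit not tested in dose response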;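 note: Vif residues 1-94 fused to GST binding biotinylated APOBEC3G peptide 110-148; 0% = full assay without inhibitor and 100% = GST in place of GST-Vif; retest series ran down from 100 µM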
# FGF22 binding – FGF22 (human) thermal shift binding; hit rate 1.5% among 340,000; Q9HCT0; calls only at 9.99 µM; AID 651658; recombinant FGF22 thermal shift, SYPRO orange fluorescence; percent of sucrose octasulfate shift, DMSO zero;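 active = melting point raised past a set limit in the mean and every replicate; inconclusive = no clear call; three in four hits are not shown here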
# Target sequence (Q9HCT0 whole entry, looked up): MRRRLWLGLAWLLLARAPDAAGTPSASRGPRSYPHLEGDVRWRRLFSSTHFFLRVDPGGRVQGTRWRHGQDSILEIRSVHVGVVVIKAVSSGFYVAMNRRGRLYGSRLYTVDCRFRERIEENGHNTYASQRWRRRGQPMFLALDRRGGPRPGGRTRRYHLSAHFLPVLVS
# Ecoli rRNA inh OD600 – further read-out of Ecoli rRNA inh, marked with its call; OD600 change, %; measured here: OD600 growth;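 optical density of the mix in the first replicate; 0 = DMSO median and -100 = no signal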
# Ecoli rRNA inh RFP – second read-out of Ecoli rRNA inh, no call of its own (marks repeat the call); RFP signal change, %; measured here: RFP humanized mutant strains;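 first replicate; 0 = DMSO median and -100 = no signal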
# The depositor's hits bear a star; i = inactive; u = inconclusive; x = not tested or not shown.
cpd	compound	ALR H2O2 inh	Ecoli rRNA inh	Ecoli rRNA inh OD600	Ecoli rRNA inh RFP	MLL AF4-AF9 inh	HNF4A DNA FP	Ecoli growth	Vif TR-FRET	FGF22 binding
1	N#Cc1ccc(/C=C/C(=O)c2ccc3c(c2)OCO3)cc1	12.1	1.1	-1.6	-1.0	-0.6	-0.1	0.666	5.2%	i
2	CNC(=O)C1CC(=O)N(c2ccc(C)cc2)C1 (centres undefined)	-4.9	x	x	x	x	-2.3	0.678	18.0%	x
3	CSc1ccccc1OCc1cc(C(=O)N2CCN(c3ccccc3)CC2C)no1 (centres undefined)	-10.4	3.5	-7.5	1.3	-1.3	-5.0	0.752	2.6%	i
4	COc1cc(C(=O)C(=O)c2cc(OC)c(O)c(OC)c2)cc(OC)c1O	-29.3	8.5	13.2	4.4	6.0	-2.4	0.677	9.4%	i
5	CCC(=O)N[C@H]1CC[C@H](CCNS(=O)(=O)c2ccc(Cl)cc2)O[C@@H]1CO	x	-9.5	-4.5	7.7	-1.0	x	x	x	i
6	CCOc1cc(CNc2ccc3[nH]c(=O)[nH]c3c2)ccc1OCC(=O)NC(C)(C)C	91.3*	x	x	x	x	3.0	0.693	u	x
7	CC1CCC(=NNC(=O)Cc2cccn2C)CC1 (centres undefined)	4.3	14.2	7.0	2.3	2.4	1.8	0.702	19.3%	i
8	O=C(N/N=C/c1ccncc1)c1cc(Br)ccc1OCc1ccccc1	-6.4	4.5	3.6	-5.4	4.3	-1.2	x	-2.7%	x
9	COCCCn1c(-c2cccs2)nc2nc3ccccc3nc21	-5.8	-5.7	4.0	-0.4	-1.2	5.2	0.659	23.4%	i
10	CCn1c(SCC(=O)c2ccc3ccccc3c2)nnc1-c1ccco1	-23.7	x	x	x	x	0.6	0.649	-0.8%	x
11	Cc1ccc(-c2nnc(N3CCN(C(=O)CN4C(=O)c5ccccc5C4=O)CC3)c3ccccc23)cc1	-5.1	x	x	x	x	-3.1	0.714	x	x
12	Cc1ccc2c(CN3C(=O)NC4(CCCCC4)C3=O)cc(=O)oc2c1C	-6.2	x	x	x	x	3.8	0.649	-3.5%	x
13	O=C(CCS(=O)(=O)c1ccc(Cl)cc1)NCCC1=CCCCC1	-2.1	7.4	9.8	0.1	-0.5	-3.0	0.719	x	i
14	O=C(CSc1ccc(-c2ccncc2)nn1)N1CCCCC1	-15.9	1.5	5.2	-0.4	4.6	-0.6	0.686	u	i
15	O=C(NN=C1CCN(Cc2ccccc2)CC1)c1ccccc1	-8.9	3.7	2.4	-0.8	4.9	-1.2	0.708	x	i
16	CN(C)CC(=O)Nc1ccc2c(c1)[C@H]1C[C@@H](CC(=O)NCc3cc(F)ccc3F)O[C@@H](CO)[C@H]1O2	x	2.3	15.8	1.6	0.3	x	x	x	i
17	Cc1ccc(N(CC(=O)NC2CCCCC2C)S(=O)(=O)c2c(C)noc2C)cc1 (centres undefined)	-2.9	3.6	7.1	-0.4	-0.2	4.5	0.697	-2.6%	i
18	O=C(Cc1ccccc1F)Nc1cc(S(=O)(=O)N2CCOCC2)ccc1N1CCOCC1	2.7	-0.7	0.8	1.4	-3.0	-2.6	0.676	x	i
19	Cc1cc(C)nc(NC(=O)c2cccc(Cl)c2)n1	68.9	x	x	x	x	5.2	x	u	x
20	Cc1noc(C)c1COc1ccccc1C(=O)NCCc1ccc(S(N)(=O)=O)cc1	-2.5	9.2	11.1	-1.1	-3.2	-1.1	0.69	x	i
21	O=C(CSc1nc(-c2ccco2)cc(C(F)(F)F)n1)NC1CCCCCCC1	-3.4	x	x	x	x	0.1	0.755	u	x
22	COc1cc(OC)cc(C(=O)Nc2nc(CC(=O)NCCc3ccccc3)cs2)c1	-8.4	-17.9	-30.2	2.3	-0.9	2.1	0.652	0.0%	i
23	Cn1cc(CN2CCCC(C(=O)Nc3cccc(-c4cc5ccccc5[nH]4)c3)C2)cn1 (centres undefined)	56.8	-32.6*	-3.0*	9.3*	12.5	-1.5	x	u	i
24	Cc1cc(F)ccc1S(=O)(=O)N1CCCOC1CNC(=O)C(=O)NCc1ccc2c(c1)OCO2 (centres undefined)	-7.4	-2.6	-5.2	1.2	1.0	5.1	0.664	-0.4%	i
25	CSc1ccccc1OCc1cc(C(=O)N(C)Cc2nonc2C)no1	-30.9	-30.0*	-10.8*	-0.3*	-2.7	-0.2	0.681	x	i
26	COc1ccc(N(CC(=O)Nc2ccccc2OC)S(=O)(=O)c2ccccc2)cc1Cl	-25.1	-11.7	-4.0	-0.2	1.1	1.7	0.74	-5.0%	i
27	CC(=O)c1ccc(N2CCN(C(=O)Nc3ccc(F)cc3)CC2)cc1	-3.9	x	x	x	x	0.2	0.712	8.1%	x
28	O=C1CCCCC1S(=O)(=O)c1ccccc1 (centres undefined)	-0.1	x	x	x	x	0.3	0.675	1.9%	x
29	O=C(NCc1cccnc1)C(=O)Nc1nc(-c2ccccc2)cs1	x	4.4	2.5	-0.3	1.7	3.0	0.636	-4.5%	i
30	CCC(=O)c1ccc(OCC(=O)OCC(=O)c2cc(C)n(CC3CCCO3)c2C)cc1 (centres undefined)	-4.8	12.5	15.8	-0.8	-7.2	1.0	0.66	-3.2%	i
31	CC(C)(C)OC(=O)N[C@@H](Cc1ccccc1)C(=O)N1CCC(C(=O)N[C@@H](Cc2c[nH]c3ccccc23)C(=O)O)CC1	0.2	10.8	-1.3	-0.9	-10.5	-1.2	0.636	x	i
32	Cc1cc(C)n2nc(SCC(=O)c3cccs3)nc2n1	x	-1.7	-0.2	-12.2	-1.3	5.5	0.694	0.1%	i
33	CC(=O)c1ccc(OCc2cc(C(=O)N3CCC(Oc4ccccc4C)CC3)no2)cc1	x	-6.2	-17.1	6.2	-0.9	5.5	0.7	x	i
34	O=C(NNC(=O)C1CCC1)c1ccccc1F	-1.4	5.8	-2.1	1.9	-5.5	-4.7	0.68	6.5%	i
35	COCc1cn(CC[C@@H]2CC[C@H](NC(=O)CCN3CCCCC3)[C@H](CO)O2)nn1	x	0.8	8.6	-0.9	-13.7	x	x	x	i
36	NNC(=O)c1cc(Cl)ccc1Cl	-9.6	x	x	x	x	1.0	0.662	x	x
37	O=C(c1[nH]c(C(F)(F)F)nc1-c1ccccc1)N1CCN(CCN2CCOCC2)CC1	x	-3.1	5.6	0.3	-0.8	-2.6	x	x	i
38	CN(Cc1cc(=O)n2ccsc2n1)C1CCCCC1	-15.1	11.3	10.4	-4.2	2.1	-3.0	0.683	x	i
39	Cc1csc(=O)n1CCC(=O)OCC(=O)NCc1ccc(F)cc1	-8.5	4.4	10.6	-1.6	0.1	-0.8	0.664	-2.7%	x
40	CCc1ccc(C(=O)NC(=S)Nc2ccc3c(c2)OCCO3)cc1	x	x	x	x	x	6.2	0.686	10.7%	x
41	COc1ccc(CNC(=O)CN2CCN(S(=O)(=O)c3c(C)c(C)cc(C)c3C)CC2)cc1OC	17.7	-25.2	-22.2	-1.2	3.0	1.4	0.704	x	i
42	CCCN1[C@@H]2c3ccc(-c4cccc(F)c4)c(=O)n3C[C@H]1[C@H](CO)[C@H]2C(=O)NCC1CC1	x	2.2	6.6	-3.0	-1.6	x	x	x	i
43	Cc1cc2ncn(C(=O)c3c(-c4ccccc4)noc3C)c2cc1C	1.2	x	x	x	x	1.2	0.703	-1.5%	x
44	Cc1ccc(S(=O)(=O)N(CCC#N)C2CCCCC2)c2nsnc12	-2.6	x	x	x	x	-0.8	0.709	4.4%	x
45	O=C(Nc1ccc(Cl)cn1)Nc1ccccc1Cl	-2.8	x	x	x	0.5	1.3	0.724	-4.8%	i
46	C[C@H](CO)N1C[C@H](C)[C@H](CN(C)Cc2ccncc2)Oc2cc(C#CC(C)(C)O)ccc2S1(=O)=O	x	0.8	7.7	-1.6	-2.2	x	x	x	i
47	COc1ccc(OC)c(NC(=O)CCN2CCCCC2)c1	x	x	x	x	x	-1.0	0.722	-3.0%	x
48	O=C(NCc1ccncc1)C(=O)NCC1OCCCN1S(=O)(=O)c1ccccc1 (centres undefined)	-3.3	x	x	x	x	-0.1	0.699	12.2%	x
49	CCc1c(C2(O)CCCCC2)[nH]c2ccc(C(F)(F)F)cc12	0.9	-1.8	-5.5	1.1	-19.8	-2.4	x	x	i
50	CC(C)N(CCn1c(SCC(=O)Nc2cccnc2Cl)nc2ccccc2c1=O)C(C)C	x	-0.5	-1.1	4.1	1.2	-0.7	x	-6.4%	i
51	COc1ccc(Cc2c(O)nc(SCC(=O)N3CCOCC3)[nH]c2=O)cc1	56.8	10.5	5.0	-4.0	-11.7	-2.4	0.702	-3.9%	i
52	O=C(COC(=O)CCNS(=O)(=O)c1ccccc1)NC(=O)Cc1ccccc1	-2.1	4.3	6.6	-2.7	0.6	0.7	0.707	2.8%	i
53	CS(=O)c1ccccc1COC(=O)Nc1ccccc1 (centres undefined)	1.4	x	x	x	x	3.1	0.673	2.8%	x
54	O=C(CSc1nccc(=O)[nH]1)Nc1cc(C(F)(F)F)ccc1N1CCOCC1	67.3	0.5	1.7	-1.4	-0.5	-3.2	0.642	0.9%	i
55	CCc1c(C)nc2ncnn2c1N1CCC(C(=O)NCc2ccc3c(c2)OCO3)CC1	-6.6	-1.0	-3.8	-0.7	x	1.8	0.672	u	x
56	Cc1cc(CN(C)C(=O)c2ccc(OC3CCN(S(=O)(=O)N(C)C)CC3)cc2)n[nH]1	-23.3	-0.7	-2.6	-2.3	-5.0	-2.9	0.712	4.8%	i
57	CCc1cccc(C)c1NC(=O)CN1CCN(S(=O)(=O)c2ccc(C(C)(C)C)cc2)CC1	-2.5	-2.7	-19.9	-0.5	1.6	2.8	0.668	3.4%	i
58	CC(=Nc1ccccc1)Nc1ccccc1	3.2	x	x	x	x	3.1	0.717	-3.8%	x
59	COC(=O)C1CC(C(=O)OC)C2C(C(=O)OC)CC(C(=O)OC)C12 (centres undefined)	x	25.9	21.1	3.6	3.6	0.1	0.633	-4.0%	i
60	Cc1ccc(NC2=C(Cl)C(=O)c3ccccc3C2=O)cc1	2.7	10.7	5.0	-0.8	3.1	-2.3	0.688	x	i

# Carrying on.
cpd	compound	ALR H2O2 inh	Ecoli rRNA inh	Ecoli rRNA inh OD600	Ecoli rRNA inh RFP	MLL AF4-AF9 inh	HNF4A DNA FP	Ecoli growth	Vif TR-FRET	FGF22 binding
61	Cc1noc(C)c1NC(=O)Nc1ccc2c(c1)CC(=O)N([C@H](C)CO)C[C@@H](C)[C@H](CN(C)Cc1ccc(C(=O)O)cc1)O2	x	3.0	3.7	-0.8	-2.6	x	x	x	i
62	COC(=O)[C@H]1[C@H](CO)[C@H]2Cn3c(ccc(-c4ccccc4)c3=O)[C@H]2N1C(=O)C1CC1	x	5.4	1.6	-5.6	0.8	x	x	x	i
63	CN(C)c1cccc(C(=O)NCc2ccccc2Cl)c1	10.6	-9.2	-6.8	-1.4	4.7	0.5	0.657	u	i
64	Cc1ccccc1CN1C(=O)C(O)(CC(=O)c2ccncc2)c2ccccc21 (centres undefined)	-5.8	x	x	x	x	1.0	0.703	u	x

# Screen by screen, quoted from above:
# Compounds 3 to 14 in Ecoli rRNA inh RFP read 1.3, 4.4, 7.7, x, 2.3, -5.4, -0.4, x, x, x, 0.1, -0.4

# This is a subset; count on the stated rates, not on these rows.
